Screening results: PubChem BioAssay, National Center for Advancing Translational Sciences (NCATS)
Six1-Eya2 inh = Six1/Eya2 interaction inhibition. AID 651725. activity change, % (test concentration not listed). AlphaScreen GST-Six1/His-Eya2 binding, biochemical; stronger effect = lower value; control for the full effect not named in the record. 360,000 tested, 0.56% active; in the data active = activity change below about -65%; inconclusive = about -30% to -65%; inactive = above about -30%; further: on the % scale 0 is the no-effect control and ±100 the full control effect; compound concentration not given in the record
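Homogeneous AlphaScreen proximity assay pairing GST-Six1 with His-tagged Eya2 (added as 5X mix: 250 nM and 500 nM) in 50 mM Tris pH 8.0, 300 mM NaCl, 1 mM TCEP. Glutathione donor and nickel acceptor beads; 1 h, 37 °C, dark.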
Sfp inh = blocks B. subtilis Sfp PPTase activity; Q9F4F7; Biochemical Sfp PPTase activity, qHTS; Potency, µM, without a hit: max response, negative = inhibition, most hits filed as inhibitors; 310,000 tested, 3.5% active; AID 1490; active means well fitted inhibition curve with a large enough effect; inconclusive means small, poorly fitted or top-dose-only effect, or another doubt; inactive means no such curve, though single readings can be large or run the other way;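 further: the enzyme is Sfp with the accession as filed and its product quenches rhodamine fluorescence; potency means the concentration at half of the fitted maximal effect; 0% = enzyme reaction without inhibitor and -100% = no enzyme wells; top concentration of the series not given in the record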
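Sfp 15 nM + cpd, 15 min RT; start w/ rhodamine-CoA 5 uM, BHQ-2-YbbR 12.5 uM (final); 50 mM Hepes pH 7.6, 10 mM MgCl2, 0.01% NP-40, 0.01% BSA; read 525/598 nm at 0 and 30 min.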
CtBP-E1A inh = CtBP/E1A binding inhibition | AlphaScreen GST-E1A/His-CtBP binding, 1536-well; stronger effect = lower value; control for the full effect not named in the record | activity change, % (test concentration not listed) | 340,000 tested, 0.49% active | AID 651724; in the data active means activity change below about -65%; inconclusive means about -30% to -65%; inactive means above about -30%; further: on the % scale 0 is the no-effect control and ±100 the full control effect; compound concentration not given in the record
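Homogeneous bead-based format: GST-tagged E1A captured on glutathione donor beads, His-tagged CtBP on nickel acceptor beads; compounds precede bead addition by 2 h at 37 °C.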
PINK1 expr mod = changes PINK1 expression; PINK1 immunofluorescence, high-content cytometry, 24 h; Potency, µM (highest dose often 76.6 µM), inactives show at the highest dose activation (PINK1 increase), most hits filed as activators; 410,000 tested, 0.2% active; active = well fitted activation curve with a large enough effect; inconclusive = small, poorly fitted or top-dose-only effect; inactive = flat fitted curve, though single readings scatter; cell line not stated here;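 further: potency means the concentration at half of the fitted maximal effect; % of control where 0% means no effect; nearly all actives have a fitted effect of over 65% in size; a mitochondrial uncoupler was the plate control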
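Decision-based qHTS: stable cells, 24 h exposure to five compound concentrations, CCCP as control. Fixed cells stained for PINK1 plus nuclear, mitochondrial and cell markers, cytometer read.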
TRPV1 PAM = potentiators of human vanilloid receptor 1 (TRPV1). Q8NER1. 320,000 tested, 0.02% active. TRPV1-expressing cells, Fluo-8 calcium influx, capsaicin EC20 potentiation; host cell line not named in the record; control for the full effect not named in the record. potentiation, % at 8.33 µM; active means potentiation above 80%; inconclusive means 30% to 80%; inactive means below 30%; further: 0% is about no effect
Target sequence (Q8NER1 whole entry, looked up): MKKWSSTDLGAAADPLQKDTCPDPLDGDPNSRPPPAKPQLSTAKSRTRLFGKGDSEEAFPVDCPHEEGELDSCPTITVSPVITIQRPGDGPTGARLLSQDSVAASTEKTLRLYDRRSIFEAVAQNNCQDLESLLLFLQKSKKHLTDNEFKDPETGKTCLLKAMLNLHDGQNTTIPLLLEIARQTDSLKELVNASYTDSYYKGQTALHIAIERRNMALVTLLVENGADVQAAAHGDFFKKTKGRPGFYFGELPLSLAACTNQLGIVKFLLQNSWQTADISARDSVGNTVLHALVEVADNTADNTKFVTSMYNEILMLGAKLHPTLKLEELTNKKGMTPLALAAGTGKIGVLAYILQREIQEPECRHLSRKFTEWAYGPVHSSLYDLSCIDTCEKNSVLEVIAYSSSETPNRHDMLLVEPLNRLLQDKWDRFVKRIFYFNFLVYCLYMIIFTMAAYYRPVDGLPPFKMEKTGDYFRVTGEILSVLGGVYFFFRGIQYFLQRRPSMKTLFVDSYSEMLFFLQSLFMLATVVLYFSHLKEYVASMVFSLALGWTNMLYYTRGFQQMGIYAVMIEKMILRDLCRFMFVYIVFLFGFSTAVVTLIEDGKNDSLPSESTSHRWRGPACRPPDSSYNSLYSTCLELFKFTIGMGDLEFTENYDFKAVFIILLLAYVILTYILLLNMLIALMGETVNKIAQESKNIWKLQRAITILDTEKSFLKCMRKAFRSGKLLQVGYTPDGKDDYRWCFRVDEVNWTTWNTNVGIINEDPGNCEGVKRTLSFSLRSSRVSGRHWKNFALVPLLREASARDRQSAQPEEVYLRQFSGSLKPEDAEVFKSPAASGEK
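Cells expressing TRPV1 were dye-loaded with Fluo-8 and read kinetically: 10 s baseline, 3 min after compound (agonist portion), then 2 min after EC20 capsaicin (allosteric enhancer portion). Calcium-bound dye fluorescence at 480/520 nm.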
D2 PAM = potentiates the human D2 dopamine receptor allosterically. P14416. potentiation, % (no concentration beside the values). 360,000 tested, 0.23% active. DiscoveRx D2 beta-arrestin cells, luminescence, 90 min; 100% = 57 uM dopamine signal; active = potentiation of 50% or more; inconclusive = 30% to 50%; inactive = 30% or less;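 further: compound concentration not given in the record; tested on top of an EC20 dose of dopamine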
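D2 cells co-treated with compound plus 50 nM dopamine (EC20) for 90 min at 37 deg C to detect potentiation. Beta-arrestin recruitment was read as enzyme-fragment luminescence after 1 h at ambient temperature. Full response was set by 57 uM dopamine.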
D2 agonist = agonists of human D2 dopamine receptor (beta-arrestin); P14416; DiscoveRx PathHunter D2 beta-arrestin, luminescence, 90 min; 100% = 57 uM dopamine signal; activation, % (test concentration not listed); 360,000 tested, 0.084% active; AID 624465; in the data active = activation above about 40%; inconclusive = about 15% to 40%; inactive = below about 15%; further: compound concentration not given in the record; the text of the record calls up to 30% inactive
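DiscoveRx PathHunter D2 beta-arrestin cells (2,100/well) attached overnight, then compound-stimulated 90 min at 37 C in HBSS/10 mM HEPES/0.1% Tween-20 buffer; beta-galactosidase complementation read by luminescence after 1 h at ambient temperature. Dopamine 57 uM final (EC100) as control.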
* marks the source's active call; other numbers are inactive results; ? = inconclusive; . = not tested or not shown; & = joins results of further samples; [ ] = another dose, or the depositor's remark.

SMILES	Six1-Eya2 inh	Sfp inh	CtBP-E1A inh	PINK1 expr mod	TRPV1 PAM	D2 PAM	D2 agonist
O=C(Oc1ccccc1C(=S)N1CCCCC1)c1cc([N+](=O)[O-])cc([N+](=O)[O-])c1	-3	32µM*	-4	-1.6%	6	59*	13
Cc1ccc(C(=O)Nc2c3c(nn2C(C)(C)C)CS(=O)(=O)C3)cc1[N+](=O)[O-]	2	10%	-7	0.1%	4	-18	3.8
CCOC(=O)/C=C/C(=O)OCC(=O)NCc1ccccc1	10	-14%	.	8.2%	2	-9	-6.3
O=C1CCC(C(=O)N2CCCC2)CN1CCc1cccc(F)c1 (stereo unspecified)	2	9%	.	2.1%	30	-1	-2.6
Cc1ccc(Cl)c(OC(=O)Cn2cnc3c2c(=O)n(C)c(=O)n3C)c1	-3	15%	0	1.7%	-1	-2	-1.6
Nc1nc(SCc2ccccc2)sc1C(=O)N1CCCCC1	-11	.	-8	3.9%	.	-13	-4.5
Cc1ccc(-n2nc(C(=O)NN)c(C)c(C#N)c2=O)cc1Cl	-11	-3%	-5	0.7%	6	-1	0.7
COc1cc(N)ccc1-c1cc2ccccc2oc1=O	3	-5%	.	7.5%	18	5	2.6
CC(C)NC(=O)N1CCOCCOCCN(C(=O)NC(C)C)CCOCCOCC1	-1	14%	-8	2.0%	-7	-25	-4.4
O=C(NCCc1ccco1)C(=O)NCC1OCCCN1S(=O)(=O)c1ccc(Cl)cc1 (stereo unspecified)	-6	9%	13	-2.6%	-1	-12	-2.6
NS(=O)(=O)c1ccc(NC(=O)CSc2nc3ccccc3[nH]2)cc1	2	-5%	-3	-0.6%	5	-10	3.6
Cc1cccc(C)c1-n1nnnc1C1c2ccccc2C(=O)N1CCCN1CCOCC1 (stereo unspecified)	4	.	7	-0.8%	.	.	.
O=C(Nc1ccc(F)cc1F)N1CCN(C(=O)c2ccco2)CC1	3	11%	8	0.9%	0	3	-2.0
CCOc1cccc(/C=N/NC(=S)Nc2ccccc2[N+](=O)[O-])c1O	?	26%	.	12%	16	-7	1.8
CCN(CC(=O)Nc1ccc(NC(C)=O)cc1)C(=O)c1ccc(N2CCCC2)c([N+](=O)[O-])c1	-12	.	8	3.0%	3	-35	-8.0
O=C(N/N=C/c1cccnc1)c1cc(-c2ccc(Cl)cc2)nc2ccccc12	-13	.	.	8.7%	.	-13	-5.2
Cc1nn(CC(O)CN2c3ccccc3Sc3ccccc32)c(C)c1Br (stereo unspecified)	?	12%	-21	-1.9%	8	-6	-1.3
CCCCOc1c(Cl)cc(C(=O)N(C)CC(=O)Nc2ccc(N3CCOCC3)cc2)cc1OCC	0	15%	3	10%	-16	-1	-0.1
COc1ccc(N(CC(=O)NC(C)(C)C)C(=O)c2ccco2)cc1	-3	-1%	2	-1.1%	1	-5	-5.8
Cc1cc(N2CC(=O)N(CCc3ccccc3)C(=O)C2)n2ncnc2n1	0	8%	6	2.3%	-5	-3	0.2
CC(C)(C)NC(=O)c1ccc(Sc2ccccc2)c([N+](=O)[O-])c1	-22	14%	-23	6.5%	-6	-29	-11
COc1ccc(/C=C/C(=O)NCCN2CCOCC2)cc1OC	-19	12%	.	-0.5%	2	-14	-1.6
COc1ccc(C(=O)Nc2ccccc2C(=O)NCC2CCCO2)cc1 (stereo unspecified)	2	16%	14	2.6%	-9	-9	5.0
NC(=O)NC(=O)CSc1nnc(-c2ccco2)n1Cc1ccccc1	1	3%	-1	-0.8%	-21	4	-5.4
Cc1cccc(OCCCC(=O)Nc2ccc(N3CCOCC3)cc2)c1	-7	3%	-1	-1.8%[38.3 µM]	-5	4	3.0
C/C(=N\NC(=O)CSc1nc2nc(C)cc(C)n2n1)c1ccccc1	-3	-9%	9	.	19	4	-2.4
CC(C)[C@H](NC(=O)Cc1ccccc1)C(=O)OCc1cc(=O)n2c(n1)sc1ccccc12	-26	-4%	-7	15%	1	-10	-0.4
Cc1cc(NC(=O)CSc2nnnn2-c2ccccc2F)no1	-6	13%	0	4.5%	-1	12	-1.4
CCOC(=O)C1=C(CC)Nc2ccccc2N=C1NC(=O)c1cc(S(=O)(=O)N(C)C)ccc1Cl	10	6%	5	0.2%	1	-3	-0.4
NC(N)=N/N=C/c1ccc(Cl)c(Cl)c1	7	-4%	-14	-1.9%	-3	-12	-2.8
CCOC(=O)C1CCN(C(=O)CCc2nnc3ccc(NCc4ccco4)nn23)CC1	-4	5%	3	7.0%	11	-8	2.4
CCN1CCCc2cc(CN(CCN3CCOCC3)C(=S)Nc3ccccc3C)ccc21	-1	2%	-9	0.5%	-17	-10	1.9
CC(Sc1ccc(Cl)cc1)C(=O)NCC1CCCO1 (stereo unspecified)	-1	19%	5	0.2%	-27	-1	-4.8
Fc1ccc(-c2cn3ccccc3n2)cc1	12	-9%	.	0.9%	-6	4	-1.7
O=C(OCCOc1ccccc1)c1cc(S(=O)(=O)N2CCOCC2)ccc1Cl	2	.	16	1.2%	8	-6	-5.1
CCOC(=O)CN(C)C(=O)CCc1nnc(-c2ccsc2)o1	1	22%	11	-0.3%	16	-4	-0.5
Cc1c(C(=O)N/N=C/c2cccnc2)sc(N)c1C#N	-15	-1%	-21	8.3%	8	3	1.7
O=C(Nc1nnc(S(=O)(=O)N2CCOCC2)s1)c1ccccc1	-13	-12%	-13	1.2%	-42	-5	-0.5
CCc1ccc(CN(C)C(=O)C2CCC(=O)N(CC3CCCCC3)C2)cc1 (stereo unspecified)	0	5%	12	-0.7%	-9	-24	-5.2
CC(C)(C)c1ccc(S(=O)(=O)Nc2ccc(Cc3ccncc3)cc2)cc1	1	-1%	-10	22%	4	4	-7.6
CCc1nc2ccccc2c(C(=O)OCC(=O)NC2CCCC2)c1C	7	.	7	-1.1%	.	0	-1.0
CN(CC(=O)Nc1ccc(S(=O)(=O)N2CCCC2)cc1)Cc1ccc(Cl)c(Cl)c1	-24	-3%	-24	0.5%	3	-5	1.2
Cc1cc(C(=O)NC2CCCc3ccccc32)c(C)o1 (stereo unspecified)	-1	21%	-1	1.1%	16	-2	-2.0
CC(=NNC(=O)CSCC(=O)NN=C(C)c1ccccc1)c1ccccc1	14	.	18	0.1%	.	-7	0.8
Cc1cc(NC(=O)COC(=O)c2ccc(F)c(S(=O)(=O)N3CCOCC3)c2)no1	2	6%	0	1.6%	-18	-7	0.4
CC(C)Cn1c(N)c(C(=O)COC(=O)c2cccc(F)c2)c(=O)n(C)c1=O	7	1%	.	1.6%	-10	-5	-1.0
OC(COc1ccccc1)CN1C2=NCCCN2c2ccccc21 (stereo unspecified)	-1	21%	-1	-2.7%	8	-32	-3.8
CN(C(=O)c1ccc(NC(=O)Cc2ccc(NC(=O)C3CCCN(C(=O)CCc4ccccc4)C3)cc2)cc1)C1CC1 (stereo unspecified)	-4	.	.	1.7%	-10	-2	-1.8
O=C(NCc1cccs1)C(=O)NCC(c1ccco1)N1CCN(c2ccc(F)cc2)CC1 (stereo unspecified)	-18	4%	-8	1.1%	13	-2	3.2
Cc1c(Nc2nc(-c3ccccc3)cs2)c(=O)n(-c2ccccc2)n1C	3	-6%	1	-0.3%	5	-16	-0.8
COc1cccc(NC(=O)N(C)C[C@@H]2Oc3ncc(Br)cc3C(=O)N([C@@H](C)CO)C[C@H]2C)c1	3	.	2	0.9%	.	6	-7.0
CC(=O)Nc1cc(C(=O)OCC(=O)c2ccccc2)ccc1C	17	-17%	1	13%	-5	?	-5.0
COc1cc(OC)c(S(=O)(=O)Nc2ccc(C(=O)N3CCCC3)cc2)cc1NC(C)=O	-13	6%	10	-0.7%	14	-1	-3.1
Cc1cccc(NC(=O)C2CCN(C(=O)c3ccco3)CC2)c1C	-4	9%	-10	0.9%	3	-4	-3.8
COc1ccc(S(=O)(=O)N2CCC[C@H]2C(=O)N2CCC[C@H]2C(=O)N[C@H](C)c2ccccc2)cc1C	6	.	7	-1.2%	.	.	.
O=C(NN1CCN(Cc2ccccc2)CC1)c1ccc(N2CCOCC2)c([N+](=O)[O-])c1	2	-7%	1	0.0%	-10	-12	-1.4
COc1ccccc1-c1c(-c2ccc(OCC(=O)NN)cc2O)n[nH]c1C(F)(F)F	1	2%	5	1.5%	-12	-11	2.7
COCCCNC(=S)Nc1ccc(CC(=O)O)cc1	13	-22%	5	6.0%	-8	0	0.9
Nc1ccc(OC(=O)Nc2ccc(O)cc2)cc1	9	-12%	-6	0.8%	25	18	5.4
CCOC(=O)C1CCN(CCC(=O)Nc2ccccc2Cl)CC1	3	13%	0	1.5%&0.1%	2	-7	-1.1
The list goes on.
SMILES	Six1-Eya2 inh	Sfp inh	CtBP-E1A inh	PINK1 expr mod	TRPV1 PAM	D2 PAM	D2 agonist
O=C1N(Cc2cccc(Cl)c2)C[C@@H]2C[C@@H](c3ccc4nonc4c3)N3CCC[C@@]123	-7	8%	6	1.1%	-7	-13	-4.1
COc1ccc(C(=O)OCCCOC(=O)c2ccc(OC)cc2OC)c(OC)c1	-3	22%	7	1.9%	19	-5	3.0
NC(=O)c1cc2ccccc2o/c1=N/NC(=O)c1cccc(F)c1	?	-10%	?	2.3%	-11	0	5.5
CSc1nc(N)nc2c1ncn2CC(=O)NCc1ccc2[nH]ccc2c1	-1	.	-1	0.7%	.	0	0.0
Cc1c(C)c2ccc(OCC(=O)Nc3ccccn3)cc2oc1=O	7	10%	.	5.6%	13	-4	-2.9
O=C(CSc1nc2ccccc2c(=O)n1Cc1ccc(F)cc1)NCC1CCCO1 (stereo unspecified)	-1	.	.	2.7%	.	-1	-0.9
O=C(NCc1ccccc1)c1cccc(Br)n1	4	-7%&-12%	6	0.5%	1	-11	-3.8
CCO[C@@H]1OC(C(=O)NCc2ccccc2)=C[C@H](c2coc3ccccc3c2=O)[C@H]1CCCO	-6	8%	2	0.2%	14	-4	-2.0
CCOC(=O)c1[nH]c2ccccc2c1NC(=O)c1ccc(S(=O)(=O)N2CCOCC2)cc1	5	20%	0	-0.8%	3	-4	-5.5
Cc1ccc(S(=O)(=O)Cc2ccccc2Cl)cc1	4	17%	12	4.7%	3	-1	-19
O=C(O)c1cccnc1Cl	4	11%	-2	2.2%	-17	1	-1.0
